HSV replic up = HSV replication enhancement; HSV replication augmentation in cells, fold increase; maximum fold increase; actives 0.005% (n = 220,000); AID 1956;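 active = peak rise of 1.5-fold or more in the series; tested in PC3 cells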;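 also: first round at 10 µM; read as green reporter fluorescence; hits show the peak of a series up to 25 µM; 1 = signal of infected wells without compound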
HSV replic up primary fold = further read-out of HSV replic up, marked with its call; fold increase; compound at 10 µM; measured here: primary screen fold increase 10 uM; tested in PC3 cells;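 GFP signal in the first replicate; 1 = infected wells without compound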
The depositor's hits bear a star; i = inactive.

SMILES	HSV replic up	HSV replic up primary fold
Cc1csc(NC(C)c2nc3cc(C(F)(F)F)ccc3n2CCOCCO)n1 (stereo unspecified)	i	0.98
CC(C)(C)Oc1ccccc1Nc1nc(NCCO)nc(N2CCCC2)n1	i	0.69
COC(=O)C1N2C(=O)[C@@H](NC(=O)COc3ccccc3)[C@H]2SC1(C)C (stereo partly specified)	i	0.95
O=C(NCc1ccc(C(F)(F)F)cc1)c1ccc2c(c1)S(=O)(=O)c1ccccc1C2=O	i	1.11
CCOC(=O)CN1C(=O)N[C@@H](c2ccccc2)[C@@H](C(=O)OC)[C@H]1C	i	0.87
O=C(OCc1cc(=O)n2c(n1)sc1ccccc12)c1ccc2c(=O)n3c(nc2c1)CCC3	i	0.83
OCC[C@H]1C[C@H](O)[C@@H](O)[C@@]2(CCCO2)O1	i	0.82
COC(=O)C1=C(CCc2ccccc2)NC(=O)NC1c1ccc([N+](=O)[O-])cc1 (stereo unspecified)	i	0.88
COCCN1C(=O)N[C@@H](c2cccc(C(F)(F)F)c2)C(C(=O)OC)=C1C	i	0.9
COc1ccc(C#Cc2c(-c3ccsc3)oc3ccc(-c4cc(OC)c(OC)c(OC)c4)cc23)cc1	i	0.87
Nc1ccc(CCNc2ncnc3c2ncn3[C@@H]2O[C@H](CO)[C@@H](O)[C@H]2O)cc1	i	0.8
CC(C)C[C@H]1COCCS(=O)(=O)N1Cc1ccccc1F	i	1.04
O=C1N[C@@H](Cc2ccccc2)C(=O)N2[C@H]1C[C@]1(Br)c3ccccc3N(S(=O)(=O)c3ccc(F)cc3)[C@H]21	i	0.6
COc1ccc2[nH]c(=O)c(-c3nnn(-c4ccc(F)cc4)n3)cc2c1	i	0.84
CC[C@]1(O)CC2CN(CCc3c([nH]c4ccccc34)[C@@](C(=O)OC)(c3cc4c(cc3OC)N(C)[C@H]3[C@@](O)(C(N)=O)[C@H](O)[C@]5(CC)C=CCN6CC[C@]43[C@@H]65)C2)C1 (stereo partly specified)	i	0.47
O=C(O)C[C@H]1c2cc(C(F)(F)F)ccc2S(=O)(=O)N1C1CCCC1	i	0.8
C=CCOC(=O)C1=C[C@H](c2ccc(Br)cc2)C[C@H](OCc2ccc(CO)cc2)O1	i	0.97
O=C(O)CCNC(=O)c1ccc(N=Nc2ccc(O)c(C(=O)O)c2)cc1	i	0.99
CCO[C@@H]1OC(C(=O)NC2CC2)=C[C@H](c2coc3ccccc3c2=O)[C@H]1CCCO	i	0.67
CN(C)CCCN1c2ccc([N+](=O)[O-])cc2CCc2cc([N+](=O)[O-])ccc21	i	0.71
O=C(c1cccc(C(F)(F)F)c1)N1CCC(=O)N(C(CO)Cc2ccccc2)CC1 (stereo unspecified)	i	0.87
CCOC(=O)[C@@H]1[C@H]2COc3ccccc3[C@@H]2N2C(=O)N(c3ccc(C(F)(F)F)cc3)C(=O)[C@]12C	i	0.76
Cc1ccc(Cn2c(C3CCCN3c3nc(C)cs3)nc3cc(C(=O)NCCCO)ccc32)cc1 (stereo unspecified)	i	0.97
Cc1cccc(-n2ncc3c(Nc4ccc(F)cc4)ncnc32)c1	i	0.85
CCn1cc(C(=O)NCc2ccccc2OC)c(=O)c2ccc(C)nc21	i	1

(continued)
SMILES	HSV replic up	HSV replic up primary fold
Nc1ccc(CNC(=O)OCC2c3ccccc3-c3ccccc32)cc1	i	1.09
CCCCCCCCN1[C@@H](CC(=O)OC)c2cc(F)ccc2S1(=O)=O	i	0.91
C=CCNC(=O)c1ccc2c(c1)S(=O)(=O)c1ccccc1C2=O	i	0.92
O=C1c2ccccc2S(=O)(=O)c2cc(C(=O)N3CCC(O)CC3)ccc21	i	0.82
COc1cc(-c2cc[n+](C)cc2)ccc1O	i	0.66
COC(=O)[C@H](Cc1ccccc1)NC(=O)[C@@H](N)CC(=O)O	i	0.83
COc1ccc(CN2[C@@H](CC(C)=O)c3ccc(/C=C/C(C)=O)cc3S2(=O)=O)cc1	i	0.97
CCCCC1=CC2=CC(=O)C(C)(OC(=O)CC)C(=O)C2=CN1c1cccc(C#N)c1 (stereo unspecified)	i	0.89
C[C@H]1CC[C@]2(O[C@@H](CCO)C[C@H](O)[C@H]2O)O1	i	0.85
COc1ccc(OC)c(N=c2oc3c(OC)cccc3cc2C(=O)NCc2ccco2)c1	i	0.72
OC(Cn1cncn1)(Cn1cncn1)c1ccc(F)cc1F	i	0.92
CN1CCN(C(=O)C2=C[C@H](c3ccc4c(c3)OCO4)C[C@H](OCCCCO)O2)CC1	i	0.9
CCO[C@@H]1OC(C(=O)O)=C[C@H](c2ccccc2)[C@H]1CCCO	i	0.97
COc1ccc(NC(=O)Cn2c(C)cc(=O)c3cccc(OC)c32)cc1	i	1.06
C=C1CCN([C@@H](Cc2ccccc2)C(=O)NCc2ccc(Cl)c(Cl)c2)S(=O)(=O)c2ccccc21	i	1.14
CC1(OC(=O)c2ccc(Cl)nc2)C(=O)C=C2C=C(c3ccsc3)OC=C2C1=O (stereo unspecified)	i	1.01
CCOC(=O)CN1C(=O)N[C@@H](CCc2ccccc2)[C@H](C(=O)OC)[C@H]1C	i	0.95
CC1=C(C(=O)OCc2ccccc2)C(c2ccccc2OS(=O)(=O)c2ccc([N+](=O)[O-])cc2)NC(=O)N1CCCC(=O)O (stereo unspecified)	i	0.88
Cn1c(=O)c(N=O)c(N)n(Cc2ccccc2)c1=S	i	1.17
CCC/C=C1/CCCOC(C(=O)NCc2ccccc2)(C(F)(F)F)C1 (stereo unspecified)	i	0.9
O=C(O)c1ccccc1N=Nc1ccc(O)cc1	i	0.84
CCCCN(CCCC)CCCNC(=O)C1CC(c2cc(C(F)(F)F)cc(C(F)(F)F)c2)=NO1 (stereo unspecified)	i	0.71
Cc1ccc(CNC(=O)c2ccc3c(c2)S(=O)(=O)c2ccccc2C3=O)o1	i	0.71
O=C(NCc1nc2ccccc2[nH]1)C1=C[C@@H](c2ccc(C(F)(F)F)cc2)C[C@@H](OCc2ccc(CO)cc2)O1	i	0.51
CC1(c2nnc(-c3cccc(Cl)c3)o2)CC(c2ccccc2)=NO1 (stereo unspecified)	i	0.88

More results.
SMILES	HSV replic up	HSV replic up primary fold
C=CCn1c(=O)c2ccccc2n2c(SCc3c(C(=O)OCC)oc4ccccc34)nnc12	i	1.04
COc1ccc(-c2ccc3oc(-c4ccc(OC)cc4)c(-c4ccc(OC)cc4)c3c2)cc1	i	0.71
CCCCc1nc(Cl)c(CO)n1Cc1ccc(-c2ccccc2-c2nnn[nH]2)cc1	i	0.87
COc1ccc(NC(=O)c2cc(OC)c(OC)cc2OC)c(S(=O)(=O)N2CCOCC2)c1	i	0.98
Cc1nn(-c2ccccc2)c2sc(C(=O)OCC(=O)N3CCCCC3)cc12	i	0.95
COC(=O)C1=C(C)N(CCCC(=O)O)C(=O)NC1c1ccc(C#N)cc1 (stereo unspecified)	i	0.74
C=CCOC(=O)C1=C[C@H](c2csc3ccccc23)C[C@H](OCCCCO)O1	i	0.82
CCC1(CC)C(=O)C2=C3C1[C@H](C(=O)OC)C=C(C(=O)OC)C[C@H]3n1c(=O)n(C)c(=O)n1[C@H]2C (stereo partly specified)	i	1.04
O=C(O)C[C@H]1c2ccc(C(F)(F)F)cc2S(=O)(=O)N1Cc1ccccc1	i	0.95
COc1cc(F)c(C(=O)NC(C)(C)CO)cc1OC	i	0.93
O=C(NCc1ccccc1)C1=C[C@@H](c2ccccc2)C[C@@H](OCCCCO)O1	i	0.94
COc1ccc(-c2csc(NCCc3nc4cc(C(=O)NCCCO)ccc4n3Cc3ccc(C)cc3)n2)cc1	i	0.89
COc1cc(CCCN2C(=O)C(=O)NC[C@H]2Cc2cccc3ccccc23)cc(OC)c1OC	i	0.79
CCOC(=O)CN1C(=O)N[C@@H](c2cccc(C(F)(F)F)c2)[C@H](C(C)=O)[C@H]1C	i	0.89
CN(C)CCc1c[nH]c2ccc(C[C@H]3COC(=O)N3)cc12	i	1.15
CC(Cc1ccccc1)Nc1ncnc2c1ncn2C1OC(CO)C(O)C1O (stereo unspecified)	i	0.85
O=C(NCCCN1CCOCC1)c1onc(CSc2ccccc2)c1C(=O)NCCCN1CCOCC1	i	1.16
COC(=O)[C@@]1(Cc2ccccc2)C=C[C@@H](C)N1C(C)=O	i	0.94
CC1(c2nnc(-c3ccncc3)o2)CC(c2ccc(Cl)cc2)=NO1 (stereo unspecified)	i	0.99
COc1ccc(CN2C(=O)[C@@H]3Cc4c([nH]c5ccccc45)C(C)(C)N3C2=O)cc1	i	0.72
C[C@@H](O)[C@H]1C(=O)N2C(C(=O)O)=C(S[C@@H]3CN[C@H](C(=O)N(C)C)C3)[C@H](C)[C@H]12	i	1.04
Cc1nc(C2CCCCC2)c(-c2ccccc2)c(N2CCOC2=O)c1C	i	1.19
COc1ccccc1CN1C(=O)[C@H]2Cc3c([nH]c4ccccc34)C(C)(C)N2C1=O	i	0.77
C#CCNC(=O)C1=C[C@H](c2ccc(C#C)cc2)C[C@H](OCc2ccc(CO)cc2)O1	i	0.87
c1ccc(-c2ccc3c(n2)CCCO3)cc1	i	0.84

Record cards, as listed above. Order of values: HSV replic up | HSV replic up primary fold
COc1cc(F)c(C(=O)NC(C)(C)CO)cc1OC is entered as i | 0.93
c1ccc(-c2ccc3c(n2)CCCO3)cc1 is entered as i | 0.84
COc1ccc(-c2ccc3oc(-c4ccc(OC)cc4)c(-c4ccc(OC)cc4)c3c2)cc1 is entered as i | 0.71
CCOC(=O)CN1C(=O)N[C@@H](c2cccc(C(F)(F)F)c2)[C@H](C(C)=O)[C@H]1C is entered as i | 0.89
CCCCc1nc(Cl)c(CO)n1Cc1ccc(-c2ccccc2-c2nnn[nH]2)cc1 is entered as i | 0.87

More structures:
SMILES	HSV replic up	HSV replic up primary fold
Cc1nc(NC(=O)c2ccccc2)sc1C1(C)CC(c2ccc(OC(F)(F)F)cc2)=NO1 (stereo unspecified)	i	0.88
COC(=O)C1=C(C)N(Cc2ccccc2)C(=O)N[C@H]1c1cccc(F)c1	i	1.1
N[C@H]1CONC1=O	i	0.67
CC12CCC(C(=O)Nc3ccc(Cl)cc3)([C@H](Br)C1=O)C2(C)C (stereo partly specified)	i	0.92
COC(=O)[C@H]1C[C@@H]1[C@H](NC(=O)c1cccnc1)c1ccccc1	i	1.07
COCOc1ccc(/C=C/C(=O)c2c(OCOC)cc(OCOC)c(CC=C(C)C)c2O)cc1OCOC	i	0.82
C1CN(c2nc3nonc3nc2N2CCOCC2)CCO1	i	0.94
CCOC(=O)[C@@H]1[C@H]2COc3cc(OC)ccc3[C@@H]2N2C(=O)N(c3ccc(C)cc3)C(=O)[C@]12C	i	0.88
Cc1ccc(SCc2nc3ncccn3c2Br)cc1	i	1.03
CC1=C(C(=O)OCc2ccccc2)C(c2ccccc2OS(=O)(=O)c2ccc(C)cc2)NC(=O)N1CCCC(=O)O (stereo unspecified)	i	0.93
Cc1cc2oc3ccc(NCCCN4CCOCC4)cc3c(=O)c2cc1C	i	0.91
O=C(NC1=NCCS1)c1cc(-c2ccccc2)nn1-c1ccccc1	i	0.91
Cc1ccc(Cn2c(C(C)Nc3nc(-c4ccc(F)cc4)cs3)nc3cc(C(=O)NCCCO)ccc32)cc1 (stereo unspecified)	i	0.94
COC(=O)C1=C(CCc2ccccc2)NC(=O)NC1c1ccc(C#N)cc1 (stereo unspecified)	i	0.84
COc1ccc(Cl)cc1NC(=O)c1cnc2n(c1=O)CCS2	i	0.92
CCC1CCCCN1Cc1nc2c(c(=O)n(C)c(=O)n2C)n1CC(C)C (stereo unspecified)	i	0.86
O=c1cc(-c2ccccc2)oc2cc(O)cc(O)c12	i	0.96
Cc1ccc(C2=CC(c3ccccc3)n3ncnc3N2)c(C)c1 (stereo unspecified)	i	0.95
C=CCn1nc(-c2ccccc2)cc1C(=O)OCC	i	0.76
CC1(C)CC(=O)C2=C(C1)NCN(CCCN1CCOCC1)C2	i	0.74
CCCNC(=O)C1(CC2CC(c3ccccc3)=NO2)CCN(C(=O)OC(C)(C)C)CC1 (stereo unspecified)	i	0.82
CC1Oc2cc3oc4c(O)c5c(cc4c(=O)c3c(O)c2C1(C)C)C=CC(C)(C)O5 (stereo unspecified)	i	0.78
CCOc1cc2c(C#N)c(N(CC)CC)nc(N)c2c(N)n1	i	1.1
Cc1noc(C)c1-c1ccc2nc[nH]c(=O)c2c1	i	0.75
C#CCCOC(=O)N1C2=NC(C(=O)OC)=C(C(=O)OC)[C@@H]3Nc4ccccc4[C@]23C[C@H]1C(=O)OC	i	1.04

Next compounds follow.
SMILES	HSV replic up	HSV replic up primary fold
O=C(NCCc1ccccc1)[C@@H]1CC=C[C@@H]2CCN(Cc3ccc(Cl)c(Cl)c3)C(=O)[C@@H]21	i	0.79
CCOC(=O)N1CCN(C(=O)COc2ccc(S(=O)(=O)NC(C)C)cc2)CC1	i	1.02
CC1(OC(=O)c2ccc(Cl)nc2)C(=O)C=C2C=C(C3CC3)OC=C2C1=O (stereo unspecified)	i	1.26
O=C1C=C(c2ccc3c(c2)OCO3)CCC1	i	0.84
CCOC(=O)CN1C(=O)N[C@@H](c2cccs2)C(C(C)=O)=C1C	i	0.92
COCC(C)n1c(C)cc(C(=O)COC(=O)c2c(NC(C)=O)sc(C)c2C)c1C (stereo unspecified)	i	0.74

A different layout for part of the listing above:
CCOC(=O)CN1C(=O)N[C@@H](c2cccs2)C(C(C)=O)=C1C
  HSV replic up: i	HSV replic up primary fold: 0.92
O=C1C=C(c2ccc3c(c2)OCO3)CCC1
  HSV replic up: i	HSV replic up primary fold: 0.84
CCOC(=O)N1CCN(C(=O)COc2ccc(S(=O)(=O)NC(C)C)cc2)CC1
  HSV replic up: i	HSV replic up primary fold: 1.02
COCC(C)n1c(C)cc(C(=O)COC(=O)c2c(NC(C)=O)sc(C)c2C)c1C (stereo unspecified)
  HSV replic up: i	HSV replic up primary fold: 0.74

The list is partial. The share of hits here may be higher or lower than overall.
